Source: PubChem (Broad Institute)
UUG fidelity = alters start codon recognition fidelity in yeast; S. cerevisiae UUG-firefly luciferase reporter, luminescence/redox ratio; activity score, % at 18.7 µM; hit rate 0.13% among 350,000; AID 602363;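 active = replicate mean at a twofold rise or more, about +100% in these data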;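 note: firefly luciferase made from a UUG start codon reports start codon fidelity; reporter light over untreated wells divided by growth signal over untreated wells; some hits fall short of that in this replicate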
HIV Env fusion = blocks HIV Env-driven cell-cell fusion; inhibition, % at 12.3 µM; HeLa-JRFL Env/CEM21 cell fusion, luciferase; hit rate 1.1% among 360,000;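 active = mean replicate inhibition score of at least 50 and every replicate individually at or above 50; inconclusive = only one of the two criteria met; inactive = mean below 50 and not all replicates reaching 50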;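 note: 0% = plate neutral controls and 100% = maraviroc near 300 nM; one replicate is shown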
An asterisk follows results filed as active; ? = inconclusive; [ ] = remark or other dose.

SMILES	UUG fidelity	HIV Env fusion
Cc1noc(C)c1NC(=O)Nc1ccc2c(c1)C(=O)N([C@H](C)CO)C[C@H](C)[C@H](CN(C)C(=O)C1CCCCC1)OCCCC[C@@H](C)O2	10	8[16.7 µM]
C[C@@H]1CN([C@H](C)CO)S(=O)(=O)c2ccc(-c3cccc(C#N)c3)cc2O[C@@H]1CN(C)C(=O)Nc1ccccc1F	5	6[16.7 µM]
C[C@@H]1CCCCO[C@@H](CN(C)C(=O)Cc2ccccc2)[C@H](C)CN([C@@H](C)CO)C(=O)c2cc(NC(=O)CCC(F)(F)F)ccc2O1	15	-75[16.7 µM]
Cc1noc(C)c1NC(=O)N(C)C[C@H]1Oc2c(NC(=O)Nc3ccc(F)cc3)cccc2C(=O)N([C@@H](C)CO)C[C@H]1C	3	-17[16.7 µM]
C[C@@H]1CN([C@@H](C)CO)S(=O)(=O)c2ccc(-c3ccc(C(=O)N(C)C)cc3)cc2O[C@H]1CN(C)C(=O)Cc1ccccn1	33	-8[16.7 µM]
CNC(=O)C[C@H]1CC[C@@H]2[C@H](COc3ccc(NC(=O)c4ccccc4OC)cc3C(=O)N2C)O1	-6	19[16.7 µM]
COc1ccc(NC(=O)Nc2ccc3c(c2)C(=O)N([C@@H](C)CO)C[C@H](C)[C@@H](CN(C)S(=O)(=O)c2ccccc2)O3)cc1	3	-13[16.7 µM]
C[C@@H]1CN([C@H](C)CO)C(=O)c2cc(NS(=O)(=O)c3cccs3)ccc2O[C@@H]1CN(C)S(=O)(=O)c1cn(C)cn1	14	-6[16.7 µM]
C[C@H](CO)N1C[C@H](C)[C@@H](CN(C)C(=O)Nc2ccc3c(c2)OCO3)Oc2ncc(-c3cccnc3)cc2C1=O	-3	-1[16.7 µM]
C[C@H](CO)N1C[C@H](C)[C@H](CN(C)C(=O)Nc2cccc3ccccc23)Oc2ccc(NC(=O)Cn3cnnn3)cc2CC1=O	-1	11[16.7 µM]
O=C(NCCN1CCOCC1)[C@@]1(CCS(=O)(=O)c2ccccc2)N=C(c2ccc(OCCCO)cc2)O[C@H]1c1ccccc1	11	4[16.7 µM]
C[C@H]1CCCCO[C@@H](CN(C)Cc2ccc(C(F)(F)F)cc2)[C@@H](C)CN([C@@H](C)CO)C(=O)c2cc(NS(=O)(=O)c3cn(C)cn3)ccc2O1	6	-28[16.7 µM]
C[C@H](CO)N1C[C@H](C)[C@H](CN(C)Cc2ccccc2)Oc2cc(C#CC(C)(C)O)ccc2S1(=O)=O	-15	-18[16.7 µM]
CC(=O)N[C@@H]1CC[C@H](CCNC(=O)Nc2ccc(C(F)(F)F)cc2)O[C@H]1CO	-6	6[16.7 µM]
C[C@@H]1CN([C@H](C)CO)C(=O)c2cc(NS(=O)(=O)c3ccccc3)ccc2O[C@@H](C)CCCCO[C@@H]1CN(C)C(=O)Cc1ccccc1	13	-10[16.7 µM]
CCCN1C[C@H](C)[C@@H](OC)CN(C)C(=O)c2ccc(NC(=O)C3CCOCC3)cc2OC[C@H]1C	-8	?
CCNC(=O)Nc1ccc2c(c1)C(=O)N(C)[C@H]1CC[C@@H](CC(=O)Nc3ccccc3)O[C@@H]1CO2	5	-27[16.7 µM]
CCS(=O)(=O)N[C@H]1C=C[C@@H](CC(=O)N2CCCCC2)O[C@H]1CO	-1	12[16.7 µM]
CCCNC(=O)C[C@@H]1CC[C@H]2[C@H](COc3ccc(NC(=O)CCC)cc3C(=O)N2C)O1	2	-2[16.7 µM]
C[C@@H]1CN([C@@H](C)CO)S(=O)(=O)c2ccc(-c3ccccc3)cc2O[C@H]1CN(C)S(C)(=O)=O	11	57*[16.7 µM]
C[C@@H]1CCCCO[C@H](CN(C)Cc2ccc(C(F)(F)F)cc2)[C@H](C)CN([C@@H](C)CO)C(=O)c2cc(NC(=O)Nc3ccc4c(c3)OCO4)ccc2O1	-4	26[16.7 µM]
C[C@@H]1CN([C@@H](C)CO)C(=O)Cc2cc(NC(=O)CCC(F)(F)F)ccc2O[C@@H]1CN(C)C(=O)Nc1ccc2c(c1)OCO2	16	9[16.7 µM]
C[C@H]1CN([C@@H](C)CO)S(=O)(=O)c2ccc(-c3ccccc3)cc2O[C@H]1CN(C)Cc1cccc(F)c1	-4	37[16.7 µM]
O=C(C1=C[C@H](c2ccc(Br)cc2)C[C@H](OCc2ccc(CO)cc2)O1)N1CCCC1	1	5[16.7 µM]
O=C(C[C@H]1CC[C@H]2[C@@H](COC[C@@H](O)CN2C(=O)C2CCOCC2)O1)NCc1ccncc1	-12	-8[16.7 µM]
Cc1noc(C)c1S(=O)(=O)Nc1ccc2c(c1)C(=O)N([C@@H](C)CO)C[C@@H](C)[C@H](CN(C)C(=O)CCCN(C)C)OCCCC[C@@H](C)O2	14	-20[16.7 µM]
C[C@@H]1CN([C@@H](C)CO)C(=O)Cc2cc(NC(=O)CCCCCC(=O)Nc3ccccc3N)ccc2O[C@@H]1CN(C)Cc1ccc(C(F)(F)F)cc1	-14	47[16.7 µM]
C[C@@H]1CN([C@H](C)CO)C(=O)Cc2cc(NS(=O)(=O)c3cccs3)ccc2O[C@H]1CN(C)Cc1ccncc1	-1	6[16.7 µM]
C[C@@H]1CN([C@@H](C)CO)C(=O)Cc2cc(NS(=O)(=O)c3ccc(Cl)cc3)ccc2O[C@@H]1CN(C)Cc1ccccc1	2	5[16.7 µM]
Cc1noc(C)c1S(=O)(=O)N(C)C[C@H]1OCCCC[C@@H](C)Oc2ccc(NC(=O)Nc3ccc(C(F)(F)F)cc3)cc2C(=O)N([C@H](C)CO)C[C@@H]1C	-5	12[16.7 µM]

A different layout for part of the listing above.
| SMILES | UUG fidelity | HIV Env fusion |
| --- | --- | --- |
| CCCN1C[C@H](C)[C@@H](OC)CN(C)C(=O)c2ccc(NC(=O)C3CCOCC3)cc2OC[C@H]1C | -8 | ? |
| CCNC(=O)Nc1ccc2c(c1)C(=O)N(C)[C@H]1CC[C@@H](CC(=O)Nc3ccccc3)O[C@@H]1CO2 | 5 | -27[16.7 µM] |
| CCS(=O)(=O)N[C@H]1C=C[C@@H](CC(=O)N2CCCCC2)O[C@H]1CO | -1 | 12[16.7 µM] |

Additional structures follow.
SMILES	UUG fidelity	HIV Env fusion
C[C@@H]1CCCCO[C@H](CN(C)Cc2ccc(C(F)(F)F)cc2)[C@@H](C)CN([C@@H](C)CO)C(=O)c2cc(N(C)C)ccc2O1	-5	4[16.7 µM]
COc1ccccc1C(=O)Nc1ccc2c(c1)C(=O)N(C)C[C@@H](OC)[C@@H](C)CN(C(C)=O)[C@@H](C)CO2	7	-7[16.7 µM]
C/C=C/c1cnc2c(c1)C(=O)N([C@@H](C)CO)C[C@@H](C)[C@@H](CN(C)C(=O)C1CCCCC1)O2	-4	-4[16.7 µM]
C[C@@H]1CN([C@@H](C)CO)C(=O)c2cc(C#CCC3CCCC3)cnc2O[C@H]1CN(C)C(=O)CN(C)C	43	1[16.7 µM]
CO[C@H]1CN(C)C(=O)c2cc(NS(=O)(=O)c3ccc(-c4ccccc4)cc3)ccc2OC[C@@H](C)NC[C@H]1C	-10	-10[16.7 µM]
O=C(C[C@@H]1C[C@@H]2c3cc(NS(=O)(=O)c4ccc(F)cc4)ccc3O[C@@H]2[C@@H](CO)O1)NCc1ccc(Cl)cc1	-1	23[16.7 µM]
C[C@@H]1CN([C@@H](C)CO)C(=O)c2cc(-c3ccc(C#N)cc3)cnc2O[C@H]1CN(C)CC1CCOCC1	-6	-3[16.7 µM]
CCCNC(=O)N(C)C[C@H]1Oc2ncc(/C=C/c3ccccc3)cc2C(=O)N([C@H](C)CO)C[C@H]1C	31	-21[16.7 µM]
Cc1noc(C)c1NC(=O)Nc1ccc2c(c1)CC(=O)N([C@@H](C)CO)C[C@H](C)[C@H](CN(C)C(=O)Nc1ccccc1)O2	17	-15[16.7 µM]
C[C@H](CO)N1C[C@H](C)[C@H](CN(C)C(=O)Nc2ccc3c(c2)OCO3)OCCCC[C@H](C)Oc2ccc(NS(=O)(=O)c3cn(C)cn3)cc2C1=O	-1	14[16.7 µM]
C[C@@H]1CN([C@@H](C)CO)C(=O)c2cccc(NC(=O)Nc3ccc4c(c3)OCO4)c2O[C@@H]1CN(C)S(=O)(=O)c1ccccc1	-2	2[16.7 µM]
C[C@H](CO)N1C[C@H](C)[C@H](CN(C)S(=O)(=O)c2ccc(Cl)cc2)Oc2c(NC(=O)Nc3cccc4ccccc34)cccc2C1=O	-20	2[16.7 µM]
C[C@@H]1CN([C@H](C)CO)C(=O)c2cc(/C=C/c3ccccc3)cnc2O[C@@H]1CN(C)C(=O)Cc1ccccn1	-6	-16[16.7 µM]
CCCc1cn(CC[C@@H]2CC[C@@H](NC(=O)CCN3CCCCC3)[C@@H](CO)O2)nn1	-4	11[16.7 µM]
CN1CCN(C(=O)C[C@@H]2C=C[C@H](NC(=O)Cc3ccccn3)[C@@H](CO)O2)CC1	-9	-16[16.7 µM]
O=C(C[C@H]1C[C@H]2c3cc(NC(=O)NC4CCCC4)ccc3O[C@H]2[C@@H](CO)O1)NCc1ccc2c(c1)OCO2	6	-11[16.7 µM]

Records above shown as hits in HIV Env fusion.
SMILES	UUG fidelity	HIV Env fusion
C[C@@H]1CN([C@@H](C)CO)S(=O)(=O)c2ccc(-c3ccccc3)cc2O[C@H]1CN(C)S(C)(=O)=O	11	57*[16.7 µM]

An excerpt of these results, in markdown:
| mol | UUG fidelity | HIV Env fusion |
| --- | --- | --- |
| CCCNC(=O)N(C)C[C@H]1Oc2ncc(/C=C/c3ccccc3)cc2C(=O)N([C@H](C)CO)C[C@H]1C | 31 | -21[16.7 µM] |
| CO[C@H]1CN(C)C(=O)c2cc(NS(=O)(=O)c3ccc(-c4ccccc4)cc3)ccc2OC[C@@H](C)NC[C@H]1C | -10 | -10[16.7 µM] |
| COc1ccccc1C(=O)Nc1ccc2c(c1)C(=O)N(C)C[C@@H](OC)[C@@H](C)CN(C(C)=O)[C@@H](C)CO2 | 7 | -7[16.7 µM] |
| C[C@@H]1CN([C@@H](C)CO)C(=O)c2cc(-c3ccc(C#N)cc3)cnc2O[C@H]1CN(C)CC1CCOCC1 | -6 | -3[16.7 µM] |
| C[C@@H]1CN([C@H](C)CO)C(=O)c2cc(/C=C/c3ccccc3)cnc2O[C@@H]1CN(C)C(=O)Cc1ccccn1 | -6 | -16[16.7 µM] |
| O=C(C[C@@H]1C[C@@H]2c3cc(NS(=O)(=O)c4ccc(F)cc4)ccc3O[C@@H]2[C@@H](CO)O1)NCc1ccc(Cl)cc1 | -1 | 23[16.7 µM] |
| CN1CCN(C(=O)C[C@@H]2C=C[C@H](NC(=O)Cc3ccccn3)[C@@H](CO)O2)CC1 | -9 | -16[16.7 µM] |

A portion of the library; the hit share may differ from the screen's.
